High-throughput results: PubChem BioAssay, Fisher Drug Discovery Resource Center
NPYLR7 ag – agonists of mosquito NPYLR7 receptor, primary screen, cell-based, Aedes aegypti, calcium fluorescence, mosquito biting behavior; Aedes aegypti neuropeptide Y-like receptor 7 (NPYLR7); HEK293T NPYLR7/Galpha15, GCaMP6s calcium fluorescence; activation, % at 10 µM; 270,000 tested, 0.15% active; AID 1259423, 2018; in the data active means activation above about 40%;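 further: 0% = vehicle and 100% = reference agonist at the receptor; some compounds past the cut are filed as inactive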
NPYLR7 ag max-min – further read-out of NPYLR7 ag, marked with its call; activation, %; measured here: Max-Min RFU normalised activation; some inactives read as strong as hits;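 span of the calcium signal over five minutes; 0% = vehicle and 100% = native peptide agonist; compound fluorescence can raise it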
Starred values were filed as active, the others as inactive; & = joins results of further samples. An excerpt; the hit share may differ from the screen's.

SMILES	NPYLR7 ag	NPYLR7 ag max-min
C=CCNc1nnc(SC2CCN(CC(F)(F)F)C2=O)s1 (stereo unspecified)	-7	-9
CCOC(=O)c1ccc(NC(=O)Nc2ccc(N(C)C)c(C(=O)NCc3ccccc3)c2)cc1	2	18
CNS(=O)(=O)c1ccc(CCC(=O)Nc2ccc(CN(C)C)c(F)c2)cc1	2	0
CCOCCCNC(=O)c1cc(NC(=O)CCl)ccc1N1CCC(C)CC1	24	32
COCCN=c1scc(-c2cccs2)n1N=Cc1cc(Br)c(O)c(OC)c1	-7	-12
CC(C)(C)C(=O)NC(=S)NCc1ccccc1	9	8
NC(=O)C1CCCN(Cc2ccc(C(=O)Nc3cnns3)cc2)C1 (stereo unspecified)	9	8
N#Cc1cccc(C(=O)NCc2ccc(-c3ccc(Cl)cc3)o2)c1	-2	-7
CCc1nc2ccc(C(=O)NCCCN3CCCC3=O)cn2c1N(CCC(C)C)CCN(C)C	-2	-9
O=C(CCOc1ccccc1)N1CCC(n2cnc3ccccc32)CC1	-3	-1
Nc1[nH]c(=S)nc2sc3c(c12)CCCCC3	-4	-6
Cc1ccc(C2=CSC3=NS(=O)(=O)CCN23)cc1C	5	4
CNC(=O)[C@@H]1C[C@H](N)CN1Cc1ccc2nonc2c1	3	-2
O=C(c1ccc(Oc2ccccc2)cc1)C1CCCN(C(=O)CCn2cncn2)C1 (stereo unspecified)	5	2
Cc1ccc(O)c(C(=O)NCc2cccnc2N(C)CCc2ccccn2)c1	16	5
O=S1(=O)CCC(n2cc(CNC3CCc4cc(F)ccc43)cn2)C1 (stereo unspecified)	-3	-4
CCC1=NN(C(=O)OC(C)(C)C)C(O)(c2ccncc2)C1 (stereo unspecified)	14	6
Cc1cccc(C(=O)NCCn2ncccc2=O)c1	-1	-1
CC1(C)O[C@@H]2C[C@@](OCc3ccc(F)cc3)(C(=O)NC3CC3)CC(OCc3cccc(OC(F)(F)F)c3)[C@@H]2O1 (stereo partly specified)	25	16
CN(Cc1cnn(-c2ccccc2)c1)C(=O)COc1ccc2ccccc2c1	15	3
COC(=O)CCCCC(=O)N1CCN(CC(OCc2ccc(C#N)cc2)c2cccc(N3CCCC3)c2)CC1 (stereo unspecified)	1	-4
CCN1[C@@H](c2ccc(Cl)cc2)[C@@H](CNC2CCN(C(C)C)CC2)C[C@@]1(C)CO	4	2
CCOCCCN(CC(=O)N1CCc2sccc2C1c1ccccc1C)S(=O)(=O)c1cccc2cccnc12 (stereo unspecified)	-7	5
FC(F)(F)Oc1cccc(-c2ccc3nnc(-c4ccncc4)n3c2)c1	4	-3
Cc1ccc(-n2cc(CN(C)CC3CCOCC3)c(-c3ccc(F)cc3)n2)cc1	-21	-20
CC(C)(C(=O)N1CCC1(C)C(=O)NS(=O)(=O)c1cccc(Cl)c1)c1ccccc1 (stereo unspecified)	2	0
Cc1ccc(Cl)c2sc(N(CCN3CCOCC3)C(=O)c3cccc([N+](=O)[O-])c3)nc12	11	3
CC(=O)N1CCC(N2CCN(c3nnc(C(F)(F)F)s3)CC2)CC1	7	20
Cc1cc(C(=O)N(C)CCCN2c3ccccc3CCc3ccccc32)ccc1Br	-4	-12
C=CCN(Cc1nc(-c2cc(OC)c3c(c2)OCO3)oc1C)C1CCS(=O)(=O)C1 (stereo unspecified)	4	-2

Compound profiles, from the list above:
`CCN1[C@@H](c2ccc(Cl)cc2)[C@@H](CNC2CCN(C(C)C)CC2)C[C@@]1(C)CO` in the list: NPYLR7 ag = 4; NPYLR7 ag max-min = 2
`CC(C)(C(=O)N1CCC1(C)C(=O)NS(=O)(=O)c1cccc(Cl)c1)c1ccccc1` (stereo unspecified) in the list: NPYLR7 ag = 2; NPYLR7 ag max-min = 0
`CC1(C)O[C@@H]2C[C@@](OCc3ccc(F)cc3)(C(=O)NC3CC3)CC(OCc3cccc(OC(F)(F)F)c3)[C@@H]2O1` (stereo partly specified) in the list: NPYLR7 ag = 25; NPYLR7 ag max-min = 16

New compounds follow
SMILES	NPYLR7 ag	NPYLR7 ag max-min
O=C(c1ccccc1NCc1cccs1)N1CC[C@@H](O)C1	-7	-16
COc1ccccc1OCC1c2ccsc2CCN1C(=O)CN(C(=O)c1ccccc1Cl)C1CC1 (stereo unspecified)	-1	6
CC(C)Cc1nc2ccccc2n1Cc1ccccc1	2	3
COc1cc(C2c3cccn3CCN2C(=O)NC2CCCCC2)cc(OC)c1OC (stereo unspecified)	7	0
CCN(CC)CCCC(C)NCc1ccccc1OC (stereo unspecified)	1	-2
Cc1sc2nc(C(C)N3CC(C)CC(C)C3)[nH]c(=O)c2c1C (stereo unspecified)	-1	-2
COc1cccc(C2=NN(C(=O)CN3CCC(Cc4ccccc4)CC3)C(c3cc(C)ccc3C)C2)c1 (stereo unspecified)	21	19
Cc1ccccc1-c1cc(O)c2c(c1)CN(C(=O)C1CCCO1)CCO2 (stereo unspecified)	9	8
COc1ccc(-n2ncc(Oc3ccc(Cl)cc3)c(Nc3cccc(C(=O)NCCN4CCOCC4)c3)c2=O)cc1	3	8
CCC1c2cccn2CCN1C(=O)c1ccc(CSc2ncn[nH]2)o1 (stereo unspecified)	21	5
C=CCc1c(C)nc2c(-c3ccccc3)cnn2c1NCc1ccccn1	4	3
O=C(CN1C(=O)C2C3CC(C(Br)C3Br)C2C1=O)N1CCCCC1 (stereo unspecified)	17	7
Nc1nc(SCc2cccc([N+](=O)[O-])c2)[nH]c(=O)c1NC(=O)c1ccc(F)c(F)c1	-1	-2
CCOc1ccc(-c2ccc(OCCNS(=O)(=O)c3ccc(CC)cc3)nn2)cc1	-7	-6
Nc1cc(-c2cccc(C(F)(F)F)c2)nn1-c1ccc(C(=O)Nc2cccc(C(F)(F)F)c2)cc1	-8	-14
COC(=O)C(CN)Cc1cccc(F)c1 (stereo unspecified)	-4	-9
Cc1ccc(-n2c(-c3ccccc3F)n[nH]c2=S)cc1	14	11
COC(=O)c1ccc(CN2CCN(C(=O)c3cn(C)cc4c(=O)n(-c5ccccc5)nc3-4)CC2)o1	-5	-8
CCOC(C)c1nc(CN(C)Cc2ncnn2C)cs1 (stereo unspecified)	3	0
COc1ccccc1CNC(=O)c1nn(-c2ccccc2C)c(=O)cc1OC	10	9
COc1cccc(C(CN2CCN(C(=O)c3cc(C)n(C)n3)CC2)OCc2ccc(C#N)cc2)c1 (stereo unspecified)	-2	4
CC(NC(=O)c1nn(CCO)c2c1CN(Cc1nccs1)CC2)c1ccccc1 (stereo unspecified)	19	3
CC(C)CN1CCC1(C)C(=O)Nc1ccc2scnc2c1 (stereo unspecified)	4	2
O=C(O)CCN(CCc1ccccc1)c1nc(-c2ccc(Cl)cc2)nc2ccccc12	-1	9
CS(=O)(=O)c1ccc(C(=O)N(Cc2ccccn2)c2nc3c(Cl)cccc3s2)cc1	-1	-4
O=C1Nc2ccccc2C1=c1sc2n(c1=O)CN(c1ccccc1)CN=2	0	3
Cn1c(=O)[nH]c(=O)c2c1nc1n(-c3ccc(S(N)(=O)=O)cc3)c(-c3ccccc3)cn21	7	9
C=CCN(CC(=O)N(CCc1ccc(OC)c(OC)c1)Cc1ccc(C)o1)C(=O)c1ccc(Cl)cc1Cl	-4	-5
CC(=O)c1cccc(NC2=NS(=O)(=O)c3ccccc32)c1	12	14
CCSc1nnc2c(n1)OC(C)(C)Nc1ccc(Br)cc1-2	3	-1
CCC(NC(=O)c1cccs1)C1c2cc(OC)c(OC)cc2CCN1Cc1ccccc1 (stereo unspecified)	6	9
CC(C)c1nn(CC(N)=O)c(=O)c2c1cnn2C(C)(C)C	1	2
O=C(Nc1cnc2n1CCCC2)c1ccccc1N1CCOCC1	1	-1
C=CCN(Cc1nc2scc(-c3ccc(OC)c(OC)c3)c2c(=O)[nH]1)CC(O)CCC (stereo unspecified)	9	13
COc1ccc(-c2cc(C(=O)Nc3ccc(OC)cc3OC)c3ccccc3n2)cc1	-18	-21
CC(C)c1cc(C(C)C)n(C2CCN(C(=O)C3CCOC3)CC2)n1 (stereo unspecified)	10	13
COc1ccc(C(=O)N(CC(=O)Nc2nc(CC(=O)N[C@H]3CCCCNC3=O)cs2)CC(C)C)cc1	13	3
CCCCCCCCNC(=O)c1nnc2n(c1=O)CCN2c1ccc(OCC)cc1	7	4
COc1ccc(CN(C)Cc2cccc3ncccc23)cc1Cn1cncn1	0	1
COc1cc(F)c(CSc2nc3cc(S(=O)(=O)N4CCCC(C)C4)ccc3n2CC2CCCO2)cc1OC (stereo unspecified)	25	11
CC(C)N(Cc1cnn(C)c1)Cc1nc(-c2ccc(C(F)(F)F)cc2)no1	9&0	-5&-4
Cc1nc2ncccn2c1C(=O)N1CCCN(CC2CC2)C(C(C)C)C1 (stereo unspecified)	25	19
Cc1cc(C(=O)NC(C)(C)CC(C)(C)C)on1	7	5
CCc1cc(CN(C)C(=O)CN2C(=O)c3ccccc3C2=O)on1	9	8
COCCNc1oc2c(c1-c1ccccc1[N+](=O)[O-])c(=O)oc1c(C)cccc12	-9	-11
CCN(CC)C(=O)C1CCCN(C(=O)CCc2c(C)nn(-c3ccc(C(C)C)cc3)c2C)C1 (stereo unspecified)	-2	-7
CCOc1ccc(-n2nnc3c(N4CCN(C(=O)CCl)CC4)ncnc32)cc1	-4	-13
Cc1ccc(C)c(-n2ccnc2S(=O)(=O)C(C)C(=O)N(C)C2CCCCC2)c1 (stereo unspecified)	5	2
Cc1nn(C(C)C)c(C)c1NC(=O)c1ccc(N2CCCC2)nc1	4	2
COCCOc1nc(-c2ccc(F)cc2)n(-c2cccc(NC(=O)COC)c2)n1	3	12
CC1(C(=O)NS(=O)(=O)c2ccc(Cl)s2)CCN1C(=O)C1(c2ccc(Cl)cc2)CCC1 (stereo unspecified)	2	3
O=C(Nc1ccc2c(c1)CN(Cc1cccn1-c1ncccn1)CC2)C1CCCO1 (stereo unspecified)	11	4
COc1ccc(N(CC(=O)NCc2ccc(Cl)cc2)S(=O)(=O)c2ccccc2[N+](=O)[O-])c(OC)c1	10	6
O=C(Cn1nc(Cc2ccccc2)c2ccccc2c1=O)N1CC[C@H](O)[C@@H](O)C1	0	0
COc1ccccc1C1(O)CCN(CCCn2c3ccccc3c3ccccc32)CC1	-7	-9
CCOC(=O)c1nn(-c2ccc(F)cc2)c(=O)cc1OCC	11	5
OC(c1ccccc1)c1ncc(-c2ccc(C(F)(F)F)cc2)[nH]1 (stereo unspecified)	-2	-2
O=C(N1CCN(CCn2cccn2)CC1)C1(c2ccccc2)CCOCC1	-2	-4
Cc1ccoc1C(=O)N1CCCC(CNC(=O)C2(c3ccc(Cl)cc3)CC2)C1 (stereo unspecified)	6	3
Cc1ccc(C(=O)NCCc2nnc3ccc(SCC(=O)NCc4ccc(F)cc4)nn23)cc1	-10	-18

The last 6 compounds of the section before are carried over, then new ones follow.
SMILES	NPYLR7 ag	NPYLR7 ag max-min
COc1ccccc1C1(O)CCN(CCCn2c3ccccc3c3ccccc32)CC1	-7	-9
CCOC(=O)c1nn(-c2ccc(F)cc2)c(=O)cc1OCC	11	5
OC(c1ccccc1)c1ncc(-c2ccc(C(F)(F)F)cc2)[nH]1 (stereo unspecified)	-2	-2
O=C(N1CCN(CCn2cccn2)CC1)C1(c2ccccc2)CCOCC1	-2	-4
Cc1ccoc1C(=O)N1CCCC(CNC(=O)C2(c3ccc(Cl)cc3)CC2)C1 (stereo unspecified)	6	3
Cc1ccc(C(=O)NCCc2nnc3ccc(SCC(=O)NCc4ccc(F)cc4)nn23)cc1	-10	-18
CCCCc1ccc(C(=O)N(CC(=O)N2CCc3sccc3C2c2ccc(Cl)cc2Cl)C2CCCCC2)cc1 (stereo unspecified)	21	22
O=C(Cc1csc(NC(=O)NC2CCCC2)n1)Nc1ccccc1Oc1ccccc1	-4	-4
CCCCSc1nnc2[nH]c(=O)cc(C)n12	-7	-2
COc1cc2c(cc1OC)CN(C(=O)CN(C)CC(=O)Nc1ccc(C)cc1)CC2	5	3
COC(=O)C1=C(C)N=c2sc(=Cc3ccc(C)o3)c(=O)n2C1c1ccc(OC(C)=O)cc1 (stereo unspecified)	4	10
COc1cc(CNC(=O)c2ccc[nH]c2=S)c2ccccc2n1	0	4
Cc1nc(SC(C(=O)NC2CCCCC2C)C(C)C)oc1C (stereo unspecified)	2	1
N#Cc1cccc(C(=O)NCc2cccc(-c3ncc(-c4ccc(F)cc4)[nH]3)c2)c1	13	11
Cc1ccc(NC(=O)c2cccc(-c3ccc(O)cc3)c2)cc1Cl	2	0
Cc1ccc(Cc2nnc(Nc3ccc(C)c(C)c3)[nH]c2=O)cc1	3	2
CCOc1ccc(-c2ccnc(N3CCN(S(=O)(=O)c4c(C)cc(C)cc4C)CC3)n2)cc1	4	1
C=Cc1cccc(CN2CCC3(CCCN(C(=O)CCOC)C3)C2)c1 (stereo unspecified)	-4	-6
COC1CCCCC1NS(=O)(=O)c1ccc(Cl)cc1 (stereo unspecified)	7	4
COCC(=O)N1C2CCC3(CC2)OC(=O)N(C)CC13 (stereo unspecified)	25	27
COCC(=O)N1CCC2(CC1)C(=O)N(CC(=O)NC1CCCCC1)CN2c1ccccc1	5	-2
COc1ccc(CN(Cc2nc(C(=O)NCc3ccco3)co2)C(C)C)c(OC)c1	4	20
Nc1cc(-c2ccc(Cl)c(Cl)c2)nn1-c1ccc(C(=O)NCCc2cccnc2)cc1	2	-2
CCOCCCn1c(SCc2cc(Cl)cc3c2OCOC3)nc2cc(S(=O)(=O)N3CCCC(C)C3)ccc21 (stereo unspecified)	6	3
Cc1cc(C)c(-c2csc(NC(=O)Cn3cnc4sccc4c3=O)n2)c(C)c1	7	7
CCCCCCn1c(=O)c2c(nc3n2CCN3c2ccc(F)cc2)n(C)c1=O	0	5
COCCN(CC(=O)N(CCc1c[nH]c2ccccc12)Cc1ccccc1OC)C(=O)NC12CC3CC(CC(C3)C1)C2	-2	5
